# Arbovirus inh = antivirals against arbovirus infection. arbovirus infection cell-based antiviral screen. inhibition, % at 10 µM. 200,000 tested, 0.37% active;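 active = inhibition from about 30%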;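 also: bluetongue infection of BSR cells; cell survival read as ATP light after 72 h; 0% = infected wells without compound and 100% = uninfected wells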
# YopH PTP inh = YopH (Yersinia) phosphatase inhibition | 140,000 tested, 0.16% active | AID 898 | inhibition, %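 (about 10 µM by stock and volumes)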 | fluorescence Ex485/Em525;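 active = inhibition of 50% or more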;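 also: controls were vehicle for no effect and minimum signal wells for full effect; inactives centre near -20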
# RecA intein inh = Mtb RecA intein splicing inhibition; cell-free RecA intein splicing, fluorescence; inhibition, %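 (about 9 µM by stock and volumes)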; 290,000 tested, 0.75% active; AID 2221; in the data active = inhibition above about 30%; inconclusive = no clear call, values can overlap the other calls;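 also: 0% = vehicle wells and 100% = reference inhibitor control wells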
# Target sequence (P9WHJ3 whole entry, looked up): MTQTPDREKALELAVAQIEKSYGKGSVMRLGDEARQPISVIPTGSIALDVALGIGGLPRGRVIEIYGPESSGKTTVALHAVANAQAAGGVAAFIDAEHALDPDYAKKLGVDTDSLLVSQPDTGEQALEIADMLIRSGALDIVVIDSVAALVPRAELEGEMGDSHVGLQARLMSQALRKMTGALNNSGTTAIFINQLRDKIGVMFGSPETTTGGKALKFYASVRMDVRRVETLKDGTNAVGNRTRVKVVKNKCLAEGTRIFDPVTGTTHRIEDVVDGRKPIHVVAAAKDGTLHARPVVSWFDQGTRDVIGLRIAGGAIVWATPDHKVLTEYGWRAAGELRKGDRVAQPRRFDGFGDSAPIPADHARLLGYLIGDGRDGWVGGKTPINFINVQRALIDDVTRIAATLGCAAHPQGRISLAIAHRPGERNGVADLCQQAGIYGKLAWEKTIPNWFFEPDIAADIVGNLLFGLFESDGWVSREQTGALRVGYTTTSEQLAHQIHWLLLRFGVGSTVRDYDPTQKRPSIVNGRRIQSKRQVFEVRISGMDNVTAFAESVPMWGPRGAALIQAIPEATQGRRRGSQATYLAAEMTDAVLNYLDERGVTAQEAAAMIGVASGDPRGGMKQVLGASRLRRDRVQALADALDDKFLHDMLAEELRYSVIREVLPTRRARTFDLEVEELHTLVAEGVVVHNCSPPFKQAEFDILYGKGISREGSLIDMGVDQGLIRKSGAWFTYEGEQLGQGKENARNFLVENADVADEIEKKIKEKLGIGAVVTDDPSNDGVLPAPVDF
# Mtb growth = M. tuberculosis H37Rv growth inhibitors, H37Rv strain (AID 1626). inhibition, % at 10 µM, or IC50 in µM where a hit was titrated. M. tuberculosis H37Rv growth inhibition; higher % means a stronger effect. 220,000 tested, 0.95% active;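 active = confirmed in a dose series; inconclusive = inhibition above 80% but not taken into the dose series; inactive = below 80% or under 30% at every dose of the series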;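 also: bacteria incubated seven days before Alamar blue readout; 0% = bacteria only wells and 100% = bacteria with antibiotic wells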
# Mtb betalactam = beta-lactam sensitization of Mtb H37Rv; M. tuberculosis H37Rv growth with meropenem, percent inhibition; hits of this screen are not shown here; 330,000 tested, 0.27% active; inhibition, % at 25 µM;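 active = about 74% or more and at least 40 points above the plate without the antibiotic, then above 30% in a dose series; inconclusive = first-round hits that could not be retested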;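 also: growth measured after seven days incubation then overnight dye step; 0% = bacteria only wells and 100% = bacteria with antibiotic; twin plates without the antibiotic show which effects depend on it; some results filed as inactive read as strong as hits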
# Arbovirus inh repeat = also measured in Arbovirus inh; calls as there; inhibition, %; measured here: 10K subset replicate screen; many hits read low in the repeat;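 first of two repeat runs on a subset; 0% = infected and 100% = uninfected wells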
# An asterisk follows results filed as active; ? = inconclusive; nt = not tested or not shown. Only part of the results is shown; the hit share may differ from the screen's.
SMILES,Arbovirus inh,YopH PTP inh,RecA intein inh,Mtb growth,Mtb betalactam,others
Cc1ccc(/C(N)=N/OC(=O)CCC2CCCCC2)cc1,4,-38,6.4,0%,-12,
O=C(CNc1cccc2ccccc12)N/N=C/c1ccc([N+](=O)[O-])cc1,-2,-21,6.0,2%,4,
Cc1ncsc1CCOC(=O)c1ccc([N+](=O)[O-])cc1,-7,-19,-3.1,78%,95,
Cc1nn(C)cc1C(=O)Nc1c(C)nn(Cc2ccccc2Cl)c1C,4,-28,1.9,-6%,6,
O=C(COc1ccc(Cl)cc1)NCCc1ccccn1,3,nt,-2.7,-11%,-1,
CCc1ccc(C(=O)C(C)OC(=O)c2nn(C)c(=O)c3ccccc23)cc1 (stereo unspecified),nt,nt,0.2,nt,-9,
O=C(N(c1ccccn1)c1ccccn1)C12CC3CC(CC(Cl)(C3)C1)C2,5,nt,0.6,1%,-8,
Cc1cccc(C(=O)OCC(=O)Nc2nccs2)c1,0,-36,-11,1%,-2,
c1ccc(Cn2ncc3c(N4CCN(C(c5ccccc5)c5ccccc5)CC4)ncnc32)cc1,nt,nt,0.7,nt,8,
COc1cccc(C(NC(=O)c2ccccc2F)NC(=O)c2ccccc2F)c1,-2,-9,-0.5,-4%,2,
COCCCNC(=O)CCc1ccccc1,2,nt,-2.4,5%,4,
O=S(=O)(c1ccccc1)c1nc(-c2ccccc2)oc1N1CCOCC1,-5,nt,-2.1,-1%,-1,
S=C1NC2CCCCC2N1 (stereo unspecified),-2,nt,7.9,-5%,-4,
N#C/C(=C\c1c[nH]c2ccccc12)c1nnc2n1CCCCC2,-13,-17,2.7,3%,-1,
COc1ccc(C(O)(CCC(C)C)C(CN2CCOCC2)c2ccc(Cl)cc2)cc1 (stereo unspecified),nt,nt,23,nt,98,
COCCNc1nc(N)c([N+](=O)[O-])c(N2CCCCCC2)n1,nt,nt,0.4,nt,6,
Cc1ccc(NC(=O)CC2C(=O)NCCN2C(=O)c2ccc(F)cc2)cc1 (stereo unspecified),nt,nt,0.2,nt,-13,
CCCn1c(=O)c2c(nc3n2CC(C)CN3Cc2ccccc2)n(C)c1=O (stereo unspecified),nt,nt,-0.2,nt,-5,
CCOC(=O)CN1C(=O)CC(c2ccc([N+](=O)[O-])cc2)C1=O (stereo unspecified),nt,nt,1.9,nt,5,
COc1cccc(NC(=S)Nc2ccc(Br)cc2Cl)c1,nt,nt,6.4,4%,1,
Cc1cccc(N(CC(=O)NC(C)(C)C)C(=O)CS(=O)CC(=O)Nc2ccc(F)cc2)c1 (stereo unspecified),-4,nt,-0.7,-5%,-3,
O=c1nc(-c2ccccc2)cc(C(F)(F)F)[nH]1,-4,-32,0.4,-8%,10,
CN1CCN(C(=O)/C=C/c2ccc([N+](=O)[O-])o2)CC1,nt,nt,-0.6,53%,nt,
O=C(O)c1ccc(S(=O)(=O)NCc2cccnc2)cc1,nt,nt,0.0,nt,-12,
COc1ccc(CC(=O)NCC2CCCN(Cc3ccc(SC)cc3)C2)cc1 (stereo unspecified),nt,nt,0.4,nt,-14,
COc1ccc(OCC(=O)Nc2ccc3c(c2)OCO3)cc1,nt,nt,16,nt,65,
O=C1c2ccccc2NC(c2ccc(O)c(O)c2)N1c1ccccc1Cl (stereo unspecified),nt,nt,-4.2,nt,0,
Cc1ccc(-c2csc(NC(=O)c3ccc4c(=O)n5c(nc4c3)CCCCC5)n2)cc1,11,-11,-1.1,5%,-4,
CCC1CCC(C(=O)NC(CCSC)C(=O)NCCc2ccc(S(N)(=O)=O)cc2)CC1 (stereo unspecified),nt,nt,2.3,nt,2,
COC(=O)c1cn(NC(=O)c2cccnc2)c(=O)c2ccccc12,1,-7,-1.1,-7%,-8,Arbovirus inh repeat=4
COC(=O)c1cc(S(=O)(=O)NCCCN2CCCC2=O)cn1C,nt,nt,-2.0,nt,-3,
O=C1CNC(=S)N1CCc1ccccc1Cl,nt,nt,0.9,-10%,-1,
CC1CCN(C(=O)Cn2cc(C(=O)c3ccco3)c3ccccc32)CC1,8,-37,-9.6,-4%,-4,
NS(=O)(=O)c1ccc(NCC2COc3ccccc3O2)c([N+](=O)[O-])c1 (stereo unspecified),3,nt,-1.1,11%,7,
CCC(C)NCC(O)COCc1ccc(Cl)cc1 (stereo unspecified),6,-11,-2.1,-3%,-4,
Cc1nn(C)cc1/C=C(/C#N)C(N)=O,-9,-27,-1.8,-5%,8,
O=C(c1ccc([N+](=O)[O-])cc1[N+](=O)[O-])N1CCc2ccccc21,nt,nt,-3.6,nt,99,
COc1ccc(CNC(=O)c2ccc3oc(C(C)C)nc3c2)cc1,nt,nt,-6.2,nt,-1,
Cc1oc2c(c(C)cc3oc(=O)c(CC(=O)NCCCN4CCCC4=O)c(C)c32)c1C,nt,nt,-17,nt,-5,
Cc1ccc(C2(c3noc(CN4CCC(C(=O)N5CCOCC5)CC4)n3)CCCC2)cc1,2,nt,-2.3,-4%,-6,
COc1ccc(/C=C2\CCC(C3CCCC3)C2=O)cc1Cn1nc(C)cc1C (stereo unspecified),2,-23,-3.0,10%,2,
COc1cc2c(cc1OC)CN(C(=O)c1ccc3[nH]c(C)c(C)c3c1)CC2,nt,nt,-0.6,nt,-10,
CCc1ccc(N2CC(C(=O)NCCC3=CCCCC3)CC2=O)cc1 (stereo unspecified),nt,nt,-4.4,nt,0,
O=C(CN1CCC(NC(=O)c2cccc(F)c2)CC1)Nc1ccc(Br)cc1,nt,nt,-0.7,nt,89,
O=C(CCS(=O)(=O)c1ccccc1)OCc1ccc([N+](=O)[O-])cc1,nt,nt,-2.8,nt,-4,
COCc1c(C#N)c(NCc2cc(OC)c(OC)c(OC)c2)nc(C)c1[N+](=O)[O-],nt,nt,1.1,-3%,-4,
CN(C)S(=O)(=O)c1ccc(C(=O)Nc2nc(-c3cc4ccccc4o3)cs2)cc1,1,-33,-4.6,2%,-4,
Cc1ccc(NS(=O)(=O)c2ccc(NC(=O)c3ccc(-c4ccccc4)cc3)cc2)c(C)c1,nt,-28,-3.5,3%,3,
CCOC(=O)c1ccc(N=C(c2ccccc2)c2c(O)n(C)c(=O)n(C)c2=O)cc1,nt,nt,13,74%,94,
Cc1ccc(S(=O)(=O)CCC(=O)Nc2ccc3nc(C)sc3c2)cc1,5,-14,-1.7,24%,37,

# Nothing new here: 12 of the compounds above.
SMILES,Arbovirus inh,YopH PTP inh,RecA intein inh,Mtb growth,Mtb betalactam,others
Cc1nn(C)cc1/C=C(/C#N)C(N)=O,-9,-27,-1.8,-5%,8,
O=C(c1ccc([N+](=O)[O-])cc1[N+](=O)[O-])N1CCc2ccccc21,nt,nt,-3.6,nt,99,
COc1ccc(CNC(=O)c2ccc3oc(C(C)C)nc3c2)cc1,nt,nt,-6.2,nt,-1,
Cc1oc2c(c(C)cc3oc(=O)c(CC(=O)NCCCN4CCCC4=O)c(C)c32)c1C,nt,nt,-17,nt,-5,
Cc1ccc(C2(c3noc(CN4CCC(C(=O)N5CCOCC5)CC4)n3)CCCC2)cc1,2,nt,-2.3,-4%,-6,
COc1ccc(/C=C2\CCC(C3CCCC3)C2=O)cc1Cn1nc(C)cc1C (stereo unspecified),2,-23,-3.0,10%,2,
COc1cc2c(cc1OC)CN(C(=O)c1ccc3[nH]c(C)c(C)c3c1)CC2,nt,nt,-0.6,nt,-10,
CCc1ccc(N2CC(C(=O)NCCC3=CCCCC3)CC2=O)cc1 (stereo unspecified),nt,nt,-4.4,nt,0,
O=C(CN1CCC(NC(=O)c2cccc(F)c2)CC1)Nc1ccc(Br)cc1,nt,nt,-0.7,nt,89,
O=C(CCS(=O)(=O)c1ccccc1)OCc1ccc([N+](=O)[O-])cc1,nt,nt,-2.8,nt,-4,
COCc1c(C#N)c(NCc2cc(OC)c(OC)c(OC)c2)nc(C)c1[N+](=O)[O-],nt,nt,1.1,-3%,-4,
CN(C)S(=O)(=O)c1ccc(C(=O)Nc2nc(-c3cc4ccccc4o3)cs2)cc1,1,-33,-4.6,2%,-4,

# Other entries follow.
SMILES,Arbovirus inh,YopH PTP inh,RecA intein inh,Mtb growth,Mtb betalactam,others
COc1ccc(/C=C2\SC(=S)N(CC3CCCO3)C2=O)cc1 (stereo unspecified),nt,nt,12,5%,-9,
CCC(CO)n1cnnc1-c1ccncc1 (stereo unspecified),3,-54,-1.3,-4%,-6,
CC(C)Cn1c(N)c(C(=O)COC(=O)c2cccc(Cl)c2)c(=O)n(C)c1=O,12,nt,2.0,5%,2,
Cc1ccc(C(=O)N2CCc3ccccc3C2)cc1S(=O)(=O)N1CCOCC1,nt,nt,3.4,nt,-19,
CCn1c(N2CCN(S(=O)(=O)CC)CC2)nc2ccccc21,7,nt,-1.8,-2%,3,
CCOC(=O)CSc1[nH]c(=O)cc(C)c1C#N,13,-26,1.9,-9%,-4,
O=C(CSc1nnnn1-c1ccc(Cl)cc1)NC(=O)Nc1ccc2c(c1)OCCO2,1,-33,0.4,-4%,-8,
Cc1cc(C(=O)Nc2ccc(N3CCCCC3)cc2)no1,nt,nt,-1.3,4%,2,
COc1cccc(C2NC(=O)NC(C)=C2C(=O)Nc2ccccc2C)c1 (stereo unspecified),4,-6,-3.6,-3%,nt,
CCOC(=O)N1CCN(C(=O)Nc2sc3nc4n(c(=O)c3c2C)CCC(C)CC4)CC1 (stereo unspecified),-10,-25,-6.1,0%,11,
Cc1ccc(CSc2nnc(-c3ccco3)o2)cc1,10,-13,4.7,nt,51,
CCOc1ccc(N(CC(=O)NC2CCCCC2)C(=O)CCC(=O)Nc2nccs2)cc1,nt,nt,1.0,nt,0,
Cc1ccc2c(c1)C1CN(C)CCC1N2C(=O)COc1ccc(N(C)S(=O)(=O)c2cccs2)cc1 (stereo unspecified),nt,nt,3.2,8%,-6,
COc1ccccc1N(CC(=O)NC1CCCCC1)S(=O)(=O)c1ccccc1,nt,nt,1.0,nt,3,
CCc1cc(C(=O)N2CCCC(C(=O)c3cccc4ccccc34)C2)n(C)n1 (stereo unspecified),7,nt,-0.7,0%,6,
Cc1cc(C)n2nc(-c3cccc(Br)c3)cc2n1,nt,nt,1.6,nt,20,
O=C(CSc1nnc(CN2CCOCC2)n1-c1ccccc1)N1CCc2ccccc21,6,7,0.3,-1%,0,
O=C(/C=C/c1ccc(NC(=O)c2ccccc2-c2ccccc2C(=O)O)cc1)c1ccccc1,nt,nt,13,nt,31,
COC(=O)C1C/C(=N/NS(=O)(=O)c2ccc(C)cc2)CS1 (stereo unspecified),nt,nt,-1.1,nt,6,
COc1ccc(N2CCN(Cc3nc4c(c(=O)n(C)c(=O)n4C)n3CC(C)=O)CC2)cc1,1,1,-3.0,-1%,-16,
CC1CC(C)CN(c2ncnc3c2cnn3-c2ccc(Cl)cc2)C1 (stereo unspecified),4,-23,-0.7,9%,9,Arbovirus inh repeat=8
CN(C)C(=O)c1ccc(NC(=O)COC(=O)C2CCN(S(=O)(=O)c3ccc4c(c3)OCCO4)CC2)cc1,nt,nt,-0.5,nt,-8,
O=C(COc1ccccc1)N1CCN=C1SCc1cccc(F)c1,nt,nt,8.0,-2%,-1,
Cc1ccc(C)c2nc3sc(C(=O)N4CCCc5ccccc54)c(N)c3cc12,-9,-1,-4.5,nt,2,
CCOC(=O)C1CCCN(C(=O)CCC(=O)Nc2ccc3nc(N4CCOCC4)cc(C)c3c2)C1 (stereo unspecified),0,2,-4.0,nt,-2,
COc1ccc([N+](=O)[O-])cc1NC(=S)NC(NC(=O)C(c1ccccc1)c1ccccc1)C(Cl)(Cl)Cl (stereo unspecified),-15,-13,2.2,0%,5,
Cc1cc(C(=O)NNC2CC(=O)N(c3ccc4ccccc4c3)C2=O)c(C)o1 (stereo unspecified),-1,nt,5.2,-4%,-11,
CCOC(=O)c1c(CN(CC)CC)oc2ccc(OC)cc12,-8,-3,-0.3,8%,-6,
COc1ccc(Cl)cc1C(=O)NNC(=O)CN1C(=O)C2CC=CCC2C1=O (stereo unspecified),19,nt,2.7,-6%,2,
Nc1c(-c2cccs2)cnc2c(-c3ccc(F)cc3)cnn12,nt,nt,0.5,nt,7,
O=C(Nc1nnc(C2COc3ccccc3O2)o1)c1ccc(F)cc1 (stereo unspecified),-18,-24,1.9,?,93,
Oc1ccc(Cl)cc1CNc1ccccn1,nt,nt,2.1,nt,3,
CCCc1nc2oc3cc(OC)ccc3c(=O)c2c(=O)n1Cc1ccco1,1,-31,2.6,3%,12,
C/C=C/C(=O)Nc1cccc(C2=NOC3(C2)C[C@H](C(N)=O)N(C(=O)/C=C/C)C3)c1 (stereo partly specified),nt,nt,-0.9,-7%,-7,
CCn1c(NCc2ccccn2)nc2ccccc21,2,19,-1.0,-1%,-6,
COc1ccc(/C=C/c2cc(C(F)(F)F)[nH]c(=O)n2)cc1OC,12,nt,-2.5,-7%,53,

# Assay outcomes deposited in PubChem BioAssay by several laboratories.
